# ugtP null kill = kills S. aureus RN4220 lacking UgtP | S. aureus RN4220 ugtP deletion, OD600 growth, 16 h; some inactives read as strong as hits | growth inhibition, % (no concentration beside the values) | actives 0.54% (n = 330,000);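 active = z-score under -3 and OD600 up to 0.15 on both plates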;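 also: plate controls were untreated wells for no effect and antibiotic for full effect; wells of about 80 µL received 100 nL stock; the first replicate is given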
# PrP 5UTR inh = inhibition of PrP 5' UTR reporter expression; cell-based PrP 5' UTR mRNA reporter, plate reader; inhibition, % (test concentration not listed); actives 0.35% (n = 340,000);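 active = every replicate at 50% or more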;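 also: 0 = median of the neutral control wells; tested in H4 reporter cells; numbers are from one replicate; inactives centre near -14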
# Mtb hypoxia rep = inhibitors of hypoxia-regulated fluorescent reporter in Mycobacterium tuberculosis | fluorescence inhibition, % (no concentration beside the values) | M. tuberculosis hypoxia-regulated fluorescent reporter, fluorescence | actives 0.1% (n = 300,000);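 active = 35 to 45% if threefold the growth effect, above 45% if 1.5-fold the growth effect; inactive = the rest, general growth blockers included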;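 also: wells of about 50 µL received 100 nL stock; 0% = vehicle wells and 100% = reference inhibitor wells; whole bacteria with a GFP reporter of the hypoxia response; strong numbers were not always called active; many hits fall short of the cut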
# Bead autofluor = flagged as autofluorescent in microsphere protease counterscreen; compound autofluorescence counterscreen, microsphere flow cytometry; hits give high values; fluorescence intensity (no concentration beside the values); actives 3.1% (n = 360,000);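 active = at least 3 SD above the mean of all compounds, about 16000 in these data; inconclusive = too few beads counted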;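 also: 100 nL of 1 mM stock went into each well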
# Sa RN4220 lethal = S. aureus RN4220 growth inhibition; actives 0.33% (n = 330,000); inhibition, % (concentration not given with the values); OD600, 16 h;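 active = z-score of -3 or lower and OD600 up to 0.18 on both plates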;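 also: plate controls were untreated cells for no effect and reference antibiotic for full effect; stock transfer was 100 nL into about 80 µL; one replicate is shown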
# BJeLR lethal = kills HRASV12-expressing BJeLR cells | BJeLR (HRASV12) viability, CellTiter-Glo ATP luminescence, 48 h; reference of the scale not given here | inhibition, % (test concentration not listed) | actives 0.17% (n = 300,000) | AID 1554;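 active = replicate mean above 50%; inconclusive = above 50% but judged a plate artefact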;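 also: 50 nL library stock added to about 25 µL; numbers are from one replicate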
# Mtb hypoxia rep growth = further read-out of Mtb hypoxia rep, marked with its call; growth inhibition, %; measured here: M. tuberculosis growth (absorbance);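 0% = vehicle and 100% = reference antibiotic; read after six days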
# * marks the source's active call; other numbers are inactive results; ? = inconclusive; / = no result given.
cpd	Molecule	ugtP null kill	PrP 5UTR inh	Mtb hypoxia rep	Mtb hypoxia rep growth
1	NS(=O)(=O)c1ccc(CNC(=O)Cc2ccsc2)cc1	-1	-5	6	-9
2	CN(C)S(=O)(=O)c1cccc(NC(=O)COC(=O)/C=C/c2ccc([N+](=O)[O-])cc2)c1	6	-26	7	7
3	Cc1cc(S(=O)(=O)Nc2cccc(Cl)c2)c(C)s1	-3	-8	4	17
4	COc1ccc(C(CC(=O)Nc2ncccc2C)N2Cc3ccccc3C2=O)cc1 (stereo not given)	10	-8	-12	-10
5	Cc1ccc(CN2CCNC(=O)C2CC(=O)N2CCN(c3ncccn3)CC2)o1 (stereo not given)	1	-14	1	6
6	CCOc1ccc2nc(N(CCCN(C)C)C(=O)c3ccc(S(=O)(=O)N4CCc5ccccc5C4)cc3)sc2c1	-2	-7	0	11
7	CCCCCCn1c(COc2ccccc2F)nnc1SCC(=O)NC1CCS(=O)(=O)C1 (stereo not given)	-4	0	0	4
8	CNC(=S)N1CCC(c2nc3ccccc3s2)CC1	-8	7	9	9
9	CN1CCN(c2nc3c(c(=O)n(C)c(=O)n3C)n2CCSc2nnnn2-c2ccccc2)CC1	-6	-12	-4	-4
10	CC1(C)CC(=O)C(C(c2cc([N+](=O)[O-])ccc2Cl)C2C(=O)CC(C)(C)CC2=O)C(=O)C1	10	/	1	6
11	COc1ccc(C)cc1NC(=O)c1ccc([N+](=O)[O-])cc1[N+](=O)[O-]	-4	-22	-12	16
12	CCC1([N+](=O)[O-])COC(c2ccc(OC)cc2)OC1 (stereo not given)	-2	3	6	2
13	Nc1ncc(Br)cc1S(=O)(=O)NCCc1ccccc1	0	-20	10	8
14	CC(C)(C)c1ccc(/C=N/Nc2cccc(C(=O)O)c2)cc1	/	60*	/	/
15	CCCN(CCC)CCCNC(=O)Cn1cnc2sc(C)c(S(=O)(=O)N3CCCCC3)c2c1=O	4	-1	-10	-12

cpd	Bead autofluor	Sa RN4220 lethal	BJeLR lethal
1	6167	0.2	-5
2	4319	6.7	-32
3	4559	3.1	-8
4	3272	2.9	-13
5	4574	5.2	-21
6	6200	-5.5	1
7	?	3.7	/
8	3397	2.6	-13
9	6108	-1.7	9
10	4084	4.0	14
11	4173	-0.3	0
12	2874	-0.6	/
13	5074	3.5	-4
14	5139	/	-7
15	3693	1.7	-1

# Next part.
cpd	Molecule	ugtP null kill	PrP 5UTR inh	Mtb hypoxia rep	Mtb hypoxia rep growth
16	O=[N+]([O-])C(=C1Nc2ccccc2N1)/C(Cl)=C(/Cl)Br	0	-31	13	-4
17	CCC(=O)Nc1cccc(C(=O)Nc2nccs2)c1	-1	-24	11	-2
18	O=C(COc1ccc(Br)cc1Br)NN1C(=O)c2ccccc2C1=O	-1	/	3	-3
19	Cc1nn(Cc2ccccc2)c(C)c1NS(=O)(=O)c1ccccc1	7	-13	9	0
20	O=C(NN=Cc1ccccc1O)C1CC(=O)N(c2ccc(F)cc2)C1 (stereo not given)	14	/	13	2
21	CC1(C)CC2(CC(c3ccccc3)Oc3cc(O)ccc32)NC(=O)N1 (stereo not given)	5	/	6	11
22	CC(C)CCn1nnnc1CN1CCN(C(=O)c2ccco2)CC1	1	-23	13	1
23	O=C(CN1C(=O)C2C3C=CC(C4CC34)C2C1=O)NCc1ccco1 (stereo not given)	6	-13	1	2
24	COc1ccc([N+](=O)[O-])cc1NC(=O)c1ccc(N(Cc2ccccc2Cl)S(C)(=O)=O)cc1	-11	-37	6	7
25	O=C(CCN1CCOCC1)N/N=C/c1cc([N+](=O)[O-])ccc1OC(F)F	/	-25	/	/
26	O=C(CSc1ccccc1)Nc1ccc2c(c1)OCO2	7	-57	7	8
27	CCOc1ccc(-c2cccc(NC(=O)c3ccc(Br)o3)c2)nn1	2	-32	0	0
28	COc1ccc(CCNc2ccc(C(CC(N)=O)NC(=O)c3ccc(Br)cc3)cc2[N+](=O)[O-])cc1 (stereo not given)	/	-4	/	/
29	COc1cc(-c2nc(N)n[nH]2)cc(OC)c1OC	3	-1	-9	-8
30	Cn1cccc1/C=N\NC(=O)Cc1ccc(Br)c2ccccc12	/	6	/	/

cpd	Bead autofluor	Sa RN4220 lethal	BJeLR lethal
16	2025	12	-6
17	4118	-12	-3
18	4146	2.6	-3
19	5644	4.7	6
20	/	-0.9	/
21	/	0.6	2
22	5275	2.9	-8
23	2497	6.4	-2
24	2131	2.8	-17
25	4409	/	-9
26	5239	2.7	-4
27	6102	0.8	-10
28	3616	/	0
29	4259	0.3	-6
30	2220	/	7

# 6 entries from above, with bars between the fields:
no. | compound | ugtP null kill | PrP 5UTR inh | Mtb hypoxia rep | Mtb hypoxia rep growth | Bead autofluor | Sa RN4220 lethal | BJeLR lethal
7 | CCCCCCn1c(COc2ccccc2F)nnc1SCC(=O)NC1CCS(=O)(=O)C1 (stereo not given) | -4 | 0 | 0 | 4 | ? | 3.7 | /
8 | CNC(=S)N1CCC(c2nc3ccccc3s2)CC1 | -8 | 7 | 9 | 9 | 3397 | 2.6 | -13
9 | CN1CCN(c2nc3c(c(=O)n(C)c(=O)n3C)n2CCSc2nnnn2-c2ccccc2)CC1 | -6 | -12 | -4 | -4 | 6108 | -1.7 | 9
10 | CC1(C)CC(=O)C(C(c2cc([N+](=O)[O-])ccc2Cl)C2C(=O)CC(C)(C)CC2=O)C(=O)C1 | 10 | / | 1 | 6 | 4084 | 4.0 | 14
11 | COc1ccc(C)cc1NC(=O)c1ccc([N+](=O)[O-])cc1[N+](=O)[O-] | -4 | -22 | -12 | 16 | 4173 | -0.3 | 0
12 | CCC1([N+](=O)[O-])COC(c2ccc(OC)cc2)OC1 (stereo not given) | -2 | 3 | 6 | 2 | 2874 | -0.6 | /

# Going on with the list.
cpd	Molecule	ugtP null kill	PrP 5UTR inh	Mtb hypoxia rep	Mtb hypoxia rep growth
31	Cc1cccc(C(=O)c2cn[nH]c2-c2ccccc2O)c1	-2	-12	0	-1
32	CCC1CCCCN1C(=O)COC(=O)c1cccs1 (stereo not given)	5	-28	13	9
33	O=C(NCc1ccco1)c1sc(=S)n2c1[nH]c(=O)c1ccccc12	79	-9	5	5
34	CCOc1ccc(-c2nnc3ccc(SC)nn23)cc1	1	-12	5	1
35	CC1=Nn2c(nc3sc4c(c3c2=O)CCCC4)SC1	/	-46	/	/
36	CCCCCCCC(=O)N/N=C(\C)c1ccc(O)cc1O	/	-14	/	/
37	COC(=O)c1ccc(-c2nc(-c3cccs3)no2)cc1	9	29	15	10
38	CC(C)N(Cc1nc(-c2ccc(Cl)cc2)no1)C(=O)CCC1CCCC1	9	-39	2	5
39	Cc1ccc(NC(=O)N2CCCC2C(=O)NCc2cccs2)cc1 (stereo not given)	-1	-12	2	2
40	Cc1ccc(C(=O)NN=CC2=Cc3ccccc3OC2C)cc1 (stereo not given)	11	/	-11	-8
41	CCc1nc2oc3cc(OC)ccc3c(=O)c2c(=O)n1-c1ccccc1	-1	-28	3	-3
42	CCCCn1c(N)c(N(CCOC)C(=O)C(C)N2C(=O)c3ccccc3C2=O)c(=O)[nH]c1=O (stereo not given)	1	-20	10	-1
43	Cc1ccccc1NC(=O)c1ccc(NC(=O)C2CCCO2)cc1 (stereo not given)	-1	-17	9	-3
44	CCOC(=O)c1cnn(-c2nc(-c3ccccc3)cs2)c1C(F)(F)F	71	-12	/	/
45	CCOC(=O)c1[nH]c2cc3c(cc2c1NC(=O)CN1CCN(CCO)CC1)OCO3	2	-17	8	2

cpd	Bead autofluor	Sa RN4220 lethal	BJeLR lethal
31	3893	3.6	-8
32	8461	-2.4	/
33	22207*	79	19
34	11378	0.3	-12
35	2112	/	0
36	2520	/	-4
37	5512	2.5	/
38	5135	-1.7	12
39	3692	1.6	-10
40	/	-1.1	/
41	14850	0.4	/
42	6812	2.1	8
43	3829	3.3	4
44	2798	-4.5	6
45	/	2.3	-5

# More records follow:
cpd	Molecule	ugtP null kill	PrP 5UTR inh	Mtb hypoxia rep	Mtb hypoxia rep growth
46	CN1CC(C(=O)O)Cc2c1ccc1ccccc21 (stereo not given)	/	-10	/	/
47	O=C1c2ccccc2C(=O)C1c1ccccn1	12	-73	8	10
48	CCn1c(=S)sc2c(=O)n(-c3ccccc3)c(SCC(=O)NCc3ccco3)nc21	21	-21	0	1
49	CCc1noc(C)c1C(=O)Nc1cccc2ncccc12	3	-12	11	-1
50	O=C(c1cccc2ccccc12)N1CCCCC1	-1	-21	8	5
51	Cc1nc2ccccc2c(=O)n1-c1cccnc1	1	-24	-3	-5
52	COc1ccccc1CNC(=O)C(=O)NCCC1CCCCN1S(=O)(=O)c1ccc(C)cc1 (stereo not given)	7	4	7	2
53	CSc1nnc(C(C)(C)C)c(=O)n1N=Cc1ccccc1	5	/	16	13
54	c1ccc(C(c2ccccc2)c2noc(CN3CCN(C4CCCC4)CC3)n2)cc1	67	-24	-9	0
55	O=C(Cn1c(=O)sc2ccccc21)NCc1ccccn1	-6	-19	/	/
56	CCOC(=O)c1cccc(C2=CC(=O)C[C@H](c3ccc(OC)cc3)C2)c1	-14	-24	3	14
57	O=C(CCNS(=O)(=O)c1cccc2nonc12)NC1CCCc2ccccc21 (stereo not given)	-4	-22	13	10
58	CCC1=C(OC(=O)N(CC)CC)N2C(=O)OC(=NCC(=O)OC)[C@]2(Cc2ccccc2)[C@H]2C1=CC[C@H]1C(=O)N(c3ccccc3)C(=O)[C@H]12	/	-24	/	/
59	O=C(CCCCn1c(=O)[nH]c2ccsc2c1=O)NCc1cccnc1	-1	1	3	8
60	CC(=O)c1ccc(OCCCC(=O)OCC(=O)Nc2ccc3[nH]c(=O)[nH]c3c2)cc1	6	-19	5	0

cpd	Bead autofluor	Sa RN4220 lethal	BJeLR lethal
46	3521	/	-7
47	4445	4.0	5
48	7706	0.8	-9
49	6571	2.1	5
50	3533	2.2	1
51	21722*	1.5	4
52	?	0.0	-2
53	/	2.8	/
54	2397	0.7	2
55	4852	1.7	-8
56	3796	-8.5	/
57	6469	2.0	/
58	4161	/	-14
59	9402	0.3	-2
60	5671	2.3	-11

# Grouped by structure: the compounds so far with a tert-butyl group (two)
cpd	Molecule	ugtP null kill	PrP 5UTR inh	Mtb hypoxia rep	Mtb hypoxia rep growth
14	CC(C)(C)c1ccc(/C=N/Nc2cccc(C(=O)O)c2)cc1	/	60*	/	/
53	CSc1nnc(C(C)(C)C)c(=O)n1N=Cc1ccccc1	5	/	16	13

cpd	Bead autofluor	Sa RN4220 lethal	BJeLR lethal
14	5139	/	-7
53	/	2.8	/

# The results go on:
cpd	Molecule	ugtP null kill	PrP 5UTR inh	Mtb hypoxia rep	Mtb hypoxia rep growth
61	Cc1cc(=O)n2nc(N3CCCC(C(=O)NCc4cccc(Cl)c4)C3)sc2n1 (stereo not given)	1	-5	0	0
62	CC1CCN(CCCCOc2ccccc2Br)CC1	10	0	1	1
63	CCCCn1c(NCc2cccs2)nc2ccccc21	-2	-30	10	4
64	CCOC(=O)c1oc2ccccc2c1NC(=O)c1ccc(S(=O)(=O)N2CCCC2)cc1	1	-16	-1	-2
65	CC1CCN(S(=O)(=O)c2ccc3c(c2)C(=NO)c2cc(S(=O)(=O)N4CCC(C)CC4)ccc2-3)CC1	-29	15	1	8
66	O=C(c1ccc(COc2c(F)c(F)cc(F)c2F)o1)N1CCN(c2ccc(Cl)cc2)CC1	-33	-7	7	6
67	O=C(CCn1c(=O)[nH]c2ccccc2c1=O)N1CC=C(c2ccccc2)CC1	-1	-24	11	1
68	Nn1c(SCC(=O)NCCC2=CCCCC2)nnc1C(F)(F)F	0	-12	1	13
69	COCCNC(=S)N/N=C/c1ccc(N2CCOCC2)cc1	/	-27	/	/
70	Cc1n[nH]c(C)c1CCC(=O)NN=Cc1c[nH]c2ccccc12	12	/	-6	11
71	CCC(Sc1ccc2nnc(-c3ccc(F)cc3)n2n1)C(=O)O (stereo not given)	9	-16	4	3
72	CCS(=O)(=O)c1nnnn1-c1ccccc1S(C)(=O)=O	-5	-1	3	16
73	O=C(c1ccc([N+](=O)[O-])cc1)N1CCN(Cc2ccccc2[N+](=O)[O-])CC1	4	-18	17	10
74	CCCCS(=O)(=O)N1CCCC(C(=O)NCC2CCCO2)C1 (stereo not given)	10	-11	9	0

cpd	Bead autofluor	Sa RN4220 lethal	BJeLR lethal
61	4325	1.6	-19
62	3041	-0.2	-1
63	4608	3.1	1
64	20008*	3.7	5
65	3087	-25	/
66	10478	1.7	4
67	4161	-2.6	10
68	10805	6.3	-11
69	2498	/	9
70	/	3.4	/
71	8003	-0.9	11
72	7674	0.4	0
73	2670	2.0	-4
74	4169	2.9	1
